B2AR ag = beta2AR agonists driving receptor internalization, primary screen, cell-based, FAP fluorogen, flow cytometry; Beta-2 adrenergic receptor (Homo sapiens), P07550; Am2.2-beta2AR cells; reference of the scale not given here; response, % (test concentration not listed); hit rate 0.43% among 340,000; AID 504454, 2011;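 active means response above a set limit, near 3 SD of response in nonfluorescent compounds, cut at about 42% in these data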;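 further: stock transfer was 100 nL into about 11 µL; a reference agonist was the positive control; negative values mostly stem from fluorescent compounds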
Target sequence (P07550 whole entry, looked up): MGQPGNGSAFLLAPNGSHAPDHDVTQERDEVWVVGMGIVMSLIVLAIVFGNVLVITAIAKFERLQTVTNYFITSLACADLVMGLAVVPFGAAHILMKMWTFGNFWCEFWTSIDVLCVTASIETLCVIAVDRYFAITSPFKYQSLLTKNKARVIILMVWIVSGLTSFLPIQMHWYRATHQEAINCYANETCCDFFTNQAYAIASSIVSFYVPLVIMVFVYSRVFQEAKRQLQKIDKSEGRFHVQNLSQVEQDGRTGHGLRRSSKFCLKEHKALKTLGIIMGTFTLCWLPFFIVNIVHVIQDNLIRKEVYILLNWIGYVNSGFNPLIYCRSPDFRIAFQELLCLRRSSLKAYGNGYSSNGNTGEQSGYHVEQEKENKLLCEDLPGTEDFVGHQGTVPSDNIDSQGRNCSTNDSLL
FGF22 binding = binders of human FGF22 protein, primary screen, FGF22 synaptogenesis inhibitor project, biophysical, thermal shift, single point; recombinant FGF22 thermal shift, SYPRO orange fluorescence; percent of sucrose octasulfate shift, DMSO zero; hit rate 1.5% among 340,000; AID 651658, 2012; calls only at 9.99 µM; Fibroblast growth factor 22 (Homo sapiens), Q9HCT0;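 active means melting point raised past a set limit in the mean and every replicate; three in four hits are not shown here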
HNF4A DNA FP = change in binding of human HNF4A to DNA, primary screen, biochemical, fluorescence polarization, FITC-DNA | activity change, % at 10 µM | Hepatocyte nuclear factor 4-alpha (Homo sapiens), P41235 | AID 1224865, 2016 | 1 h | hit rate 0.3% among 360,000; in the data active means activity change above about 30%, passing the limit was not always enough;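 further: controls were the assay level and a saturating level of protein; the project sought stronger binding though the title names inhibitors; some compounds called inactive have numbers as strong as hits; positive values seem to mean higher polarization but the record does not say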
Target sequence (P41235 whole entry, looked up): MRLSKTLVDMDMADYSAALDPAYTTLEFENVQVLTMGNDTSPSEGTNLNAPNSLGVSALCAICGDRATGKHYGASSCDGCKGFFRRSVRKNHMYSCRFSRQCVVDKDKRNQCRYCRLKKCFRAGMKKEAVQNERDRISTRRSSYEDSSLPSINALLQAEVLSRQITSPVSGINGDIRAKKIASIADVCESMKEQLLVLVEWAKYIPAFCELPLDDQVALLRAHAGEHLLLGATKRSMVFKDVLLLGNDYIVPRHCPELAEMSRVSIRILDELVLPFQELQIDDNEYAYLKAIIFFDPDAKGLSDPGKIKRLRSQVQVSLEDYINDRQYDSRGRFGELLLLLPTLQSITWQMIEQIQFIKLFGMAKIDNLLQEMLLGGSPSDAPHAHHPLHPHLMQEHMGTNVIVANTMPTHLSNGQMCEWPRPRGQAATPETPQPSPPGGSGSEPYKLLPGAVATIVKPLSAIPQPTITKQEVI
ALR H2O2 inh = inhibitors of human ALR sulfhydryl oxidase, primary screen, biochemical, H2O2 detection, HRP-luminol luminescence, single point; FAD-linked sulfhydryl oxidase ALR (Homo sapiens), P55789; purified ALR, DTT oxidation; hit rate 3.8% among 290,000; inhibition, % (test concentration not listed);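 active means mean and each replicate at 75% or more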;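 further: stock transfer was 7.5 nL into about 7.5 µL; 0% = neutral wells and 100% = wells with inactivated enzyme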
Target sequence (P55789 whole entry, looked up): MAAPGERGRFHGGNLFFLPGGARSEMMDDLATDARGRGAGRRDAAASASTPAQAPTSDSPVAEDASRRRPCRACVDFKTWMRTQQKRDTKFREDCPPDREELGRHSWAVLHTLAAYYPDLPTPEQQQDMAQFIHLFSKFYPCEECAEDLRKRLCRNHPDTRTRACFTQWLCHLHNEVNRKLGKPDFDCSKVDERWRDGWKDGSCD
rRNA inh HTS = reduced GFP signal of wild-type E. coli, primary screen, bacterial rRNA inhibitor project, GFP/RFP fluorescence, OD600, single point. E. coli WT GFP vs humanized-ribosome RFP mutants, 24 h; stronger effect = lower value; DMSO median 0, no signal -100. GFP signal change (wild-type ribosome), % (concentration not given with the values). hit rate 1.6% among 350,000;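 active means significant combined selectivity score with lowered wild-type GFP, culture density cut under 30%, mutant RFP and density less affected; inactive means any of these conditions unmet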; further: one replicate is shown; some compounds called inactive have numbers as strong as hits
UCH37 inh = inhibitors of human UCH37 deubiquitinase, primary screen, biochemical, Ub-AMC cleavage, fluorescence; Ubiquitin carboxyl-terminal hydrolase isozyme L5 (Homo sapiens), Q9Y5K5; purified proteasome/UCH37; hit rate 0.33% among 330,000; inhibition, % (test concentration not listed); AID 588478, 2011;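 active means mean of two replicates above 20%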;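 further: 0% = compound-free wells with enzyme and 100% = wells lacking proteasome; stock transfer was 100 nL into about 20 µL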
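system = Proteasome-associated human UCH37 deubiquitinase | amount = 0.15 nM proteasome as dispensed | medium = pH 7.4 Tris-HCl (50 mM) with ovalbumin, ATP-MgCl2, DTT | incubation = 30 min preincubation with enzyme, 25 min cleavage at room temperature | detection = AMC fluorescence 355/460 nm | read-out basis = percent inhibition | controls = no-proteasome and no-compound wells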
E coli growth = E. coli growth inhibition, primary screen, OD600. AID 1053175, 2014. hit rate 0.21% among 330,000. OD600 absorbance (no concentration beside the values). Escherichia coli growth, 23 h; stronger effect = lower value;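 active means OD600 absorbance below the run mean of sample wells minus 3.6 SD, in any replicate, cut at about 0.56 in these data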;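 further: stock transfer was 300 nL into about 60 µL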
rRNA inh HTS OD600 = second read-out of rRNA inh HTS, no call of its own (marks repeat the call); OD600 change, %; measured here: OD600 growth;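 optical density of the mix in the first replicate; 0 = DMSO median and -100 = no signal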
rRNA inh HTS RFP = second read-out of rRNA inh HTS, no call of its own (marks repeat the call); RFP signal change, %; measured here: RFP humanized mutant strains;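 first replicate; 0 = DMSO median and -100 = no signal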
Numbers without * were called inactive; i = inactive; / = no result given; + = active, no number; & = joins results of further samples. These rows are one share of the data. The share of hits here may be higher or lower than overall.

Values run as follows: B2AR ag	FGF22 binding	HNF4A DNA FP	ALR H2O2 inh	rRNA inh HTS	rRNA inh HTS OD600	rRNA inh HTS RFP	UCH37 inh	E coli growth
CSc1nnc(COc2ccc(C)cc2)n1N
 : 2	/	2.9	-16	/	/	/	4.0	0.71
O=C(N/C(=C/c1cccc(Br)c1)c1nc(=S)[nH][nH]1)c1ccccc1
 : 5	/	-1.7	35	/	/	/	3.2	0.65
CCN(CC)CCCNC(=O)C1c2cc(OC)c(OC)cc2C(=O)N(C)C1c1cccs1 (stereo unspecified)
 : 2	/	1.2	/	/	/	/	0.9	0.71
Cc1cccc(CCNC(=O)CCS(=O)(=O)c2cc3c(cc2C)NC(=O)CO3)c1
 : -2	i	-3.1	-3	1	10	1.6	5.2	0.68
COc1cc2cc(CN(CCN3CCCC3)C(=O)Nc3ccc(F)cc3)c(=O)[nH]c2cc1OC
 : -1	/	12	-31	/	/	/	-16	0.69
O=C(CN1CCOCC1)Nc1ccc2c(c1)OCO2
 : 0	i	3.1	-4	10	15	-0.7	3.0	0.63
COc1ccc(CCN2C(=O)c3ccccc3C2c2nnnn2Cc2ccccc2)cc1OC (stereo unspecified)
 : /	i	4.3	/	-21*	-16*	1.3*	/	/
Cc1ccc(C)c(N(CC(=O)N2CCCCCC2)S(C)(=O)=O)c1
 : -1	i	2.3	-9	6	-3	0.8	-0.9	0.67
O=C(NCCN1CCOCC1)c1nn2c(c1Cl)NC(c1ccccc1)CC2C(F)(F)F (stereo unspecified)
 : 1	/	5.4	-4	/	/	/	1.4	0.66
COc1ccc(CNC(=O)C2CCC(CNc3c(N4CCCCC4)c(=O)c3=O)CC2)cc1 (stereo unspecified)
 : -2	i	-0.6	/	-2	5	2.7	3.9	0.68
CCC(=O)Nc1ccc(-c2cc(-c3ccccc3)nc(-c3ccc(NC(=O)CC)cc3)n2)cc1
 : 4	/	5.5	/	/	/	/	-35	0.74
O=C1Nc2ccccc2C1C(C[N+](=O)[O-])c1ccccn1 (stereo unspecified)
 : -1	i	-0.2	2	14	14	1.2	1.7	0.63
CCCS(=O)(=O)NC(=O)C1(C)CCCN(C(=O)c2cc(-c3cccs3)oc2C)C1 (stereo unspecified)
 : /	i	-3.2	/	12	13	2.4	/	/
COc1ccc(C2=NS(=O)(=O)N(C)C(C(=O)N3CCc4ccccc4C3)=C2)cc1OC
 : -3	i	1.7	2	-17	-17	-1.3	-6.6	0.75
COc1ccc(NC(=O)CSc2nc3sc(C)cc3c(=O)n2C)c(OC)c1
 : -2	i	-0.2	/	8	11	-1.6	0.8	0.65
COc1ccc(N=C2S/C(=C\c3cc(C)n(C)c3C)C(=O)N2CC(C)C)cc1
 : 7	/	-2.1	-6	/	/	/	-1.4	0.8
O=C(O)C1Sc2[nH]c(=O)sc2C2c3cc(Cl)ccc3OC(=O)C12 (stereo unspecified)
 : 4	/	2.4	94*	/	/	/	1.2	0.67
O=S(=O)(Nc1ncn[nH]1)c1ccc2ccccc2c1
 : 1	/	-1.6	-5	/	/	/	-2.6	0.72
OCC[C@H]1C[C@H](O)[C@@H](O)[C@@]2(Cc3ccccc3O2)O1
 : -6	i	1.2	0	15	7	4.1	0.5	/
Cc1cc2ccccn2c1C(=O)Nc1ccc(Cl)cc1
 : -5	i	-1.5	-3	-49	-68	-10	-67	0.68
COc1ccc(C(=O)OCC(=O)Nc2cccc(S(=O)(=O)N3CCCCCC3)c2)cc1[N+](=O)[O-]
 : -1	i	-5.5	/	-5	-2	2.2	4.2	0.75
COc1ccc([C@@H]2CC=C(C(=O)O)[C@H](c3ccccc3F)N2S(=O)(=O)c2ccc(C)cc2)cc1OC
 : -2	i	-2.5	1	-5	0	-13	-0.3	/
CCn1c(SCC(=O)Nc2ncc(C(F)(F)F)cc2Cl)nnc1-c1cccc(C)c1
 : -18	/	0.0	/	/	/	/	0.7	0.69
CC(Cc1cccs1)NC(=O)c1cccc(Cl)c1 (stereo unspecified)
 : 5	i	0.4	0	1	3	-1.0	0.8	0.69
CCOC(=O)c1sc(NC(=O)CSc2nccc(C)n2)c(C#N)c1C
 : 1	/	1.4	-3	/	/	/	2.4	0.79
CCOc1ccc(NC(=O)COC(=O)c2c[nH]c3ccccc23)cc1
 : /	i	0.9	/	3	11	0.7	/	/
CNc1cc(-c2ccc(OC)c(OC)c2)ncn1
 : /	i	-0.4	/	0	-6	8.0	/	/
CC(=O)Nc1ccc(S(=O)(=O)NNC(=O)COc2ccc(C)cc2)cc1
 : -2	i	-0.5	-10	11	5	5.9	/	/
O=[N+]([O-])c1ccc(S(=O)(=O)N2CCN=C2SCc2cccnc2)cc1
 : -11	i	-3.1	-30	-2	-1	-4.5	/	/
COc1cc(S(=O)(=O)N(Cc2ccccn2)Cc2ccccc2Cl)ccc1-n1cnnn1
 : -18	/	-0.4	-9	/	/	/	3.2	0.72
CC(C)CCNC(=O)Cc1ccccc1[N+](=O)[O-]
 : -3	/	-1.3	-11	/	/	/	2.0	0.68
COc1cccc(Nc2nc(-c3sc(C)nc3C)cs2)c1
 : 10	i	-0.8	7	-52	-67	-9.7	-0.3	0.71
Nc1cccc(C(=O)Nc2ccc(N)cc2Cl)c1
 : -6	i	7.6	99*	9	9	1.0	0.5	0.7
CCOc1ccccc1CNS(=O)(=O)c1ccc(-c2cnc(C3CC3)o2)cc1
 : 17	i	0.6	-15	-28	-48	-7.0	0.7	0.72
COc1ccc(S(=O)(=O)N2CCC(C(=O)NCc3ccncc3)CC2)cc1C
 : 1	i	-1.8	0	0	5	-1.8	1.7	0.68
COc1ccc(N2CCN(C(=O)COC(=O)/C=C/c3ccc(C(F)(F)F)cc3)CC2)cc1
 : 14	i	4.2	-6	12	10	-0.3	0.7	0.69
O=C(Nc1nc(=O)n(C(=O)C2CC2)s1)c1ccccc1
 : 6	+	-1.2	27	1	2	1.7	5.1	0.63
CCOCC(=O)Nc1cc(C)on1
 : -5	i	-5.6	/	13	18	0.0	-0.9	0.72
CCc1ccc(C(=O)NNC(=O)C2CSC3(C)CCC(=O)N23)cc1 (stereo unspecified)
 : -5	i	0.7	3	-1	-2	-1.0	0.0	0.69
C=CCNC(=O)c1cc(-c2ccccc2O)on1
 : 9	i	-3.8	-43	15	11	4.6	4.8	0.69
O=Cc1cc2ccccc2nc1SCc1ccc(Cl)cc1
 : 46*	/	0.0	-1	/	/	/	5.4	0.67
CCCNC(=O)OCC12CC3CC(CC(C3)C1)C2
 : 6	i	4.4	0	-6	-16	1.6	2.4	0.7
CCOC(=O)c1sc2nc(C)nc(SCC(=O)NC(C)CCc3ccccc3)c2c1C (stereo unspecified)
 : -5	i	17	-27	0	2	-0.7	-3.7	0.65
Cc1nc(C)n(CCNC(=O)c2ccco2)n1
 : -6	i	-0.9	-3	11	3	5.8	1.2	0.66
O=C(CN1C(=O)C2CC=CCC2C1=O)Nc1nnc(SCc2ccc(F)cc2)s1 (stereo unspecified)
 : 4	/	0.5	-4	/	/	/	3.7	0.68

Individual results from the results shown.
For UCH37 inh, O=C(N/C(=C/c1cccc(Br)c1)c1nc(=S)[nH][nH]1)c1ccccc1 has 3.2
For rRNA inh HTS RFP, Nc1cccc(C(=O)Nc2ccc(N)cc2Cl)c1 has 1.0
For rRNA inh HTS OD600, CCCNC(=O)OCC12CC3CC(CC(C3)C1)C2 has -16

Additional results follow:
Values run as follows: B2AR ag	FGF22 binding	HNF4A DNA FP	ALR H2O2 inh	rRNA inh HTS	rRNA inh HTS OD600	rRNA inh HTS RFP	UCH37 inh	E coli growth
Cc1ccccc1-n1nc2c(c1NC(=O)c1ccc3c(c1)OCO3)CS(=O)(=O)C2
 : -1	i	4.9	-6	14	5	0.6	-0.5	0.67
Cc1cccc2c(=O)c(C(=O)NCc3cccs3)c[nH]c12
 : 4	i	2.5	-6	-5	2	13	2.2	0.74
O=C(COC(=O)c1ccco1)Nc1nc2ccc([N+](=O)[O-])cc2s1
 : 2	i	-2.7	1	5	1	-3.3	6.0	0.64
Cn1c(/C=C/c2ccc(Cl)cc2)c([N+](=O)[O-])c(=O)n(C)c1=O
 : 4	i	-0.1	/	-2	-1	0.4	3.2	0.65
COc1ccc2oc(C)c(C(N)=O)c2c1
 : -4	/	2.2	-7	/	/	/	3.7	0.7
O=S(=O)(Nc1ccon1)c1ccc(F)c(F)c1
 : 4	i	-0.7	-4	13	2	0.3	1.0	0.71
Cn1cc(S(=O)(=O)N2CCCC2)cc1C(=O)NCc1ccc(F)cc1
 : 2	i	-1.9	-2	0	-3	-7.9	1.2	0.7
CC(=O)C(CC(=O)N1CCCc2ccccc21)C(=O)Nc1ccc(F)cc1 (stereo unspecified)
 : 6	/	-4.4	-2	/	/	/	4.0	0.71
CCOC(=O)c1cc2sc(C)cc2n1CC(=O)N1CCc2ccccc21
 : -7	/	0.9	-8	/	/	/	-2.2	0.72
C[C@H](CO)N1C[C@H](C)[C@@H](CN(C)C(=O)NC2CCCCC2)Oc2ccc(NS(C)(=O)=O)cc2C1=O
 : 1	i	-3.9	1	1&6	4&0	0.2&-1.3	0.7	/
CN(C(=O)COC(=O)c1ccc(S(=O)(=O)N2CCOCC2)cc1)c1ccccc1
 : -3	i	10	-1	0	1	-1.1	0.1	0.67
O=c1cc(-c2ccccc2)nc(SCc2ccc(F)cc2)[nH]1
 : -8	/	-0.5	/	/	/	/	3.1	0.7
COc1ccc(CN2CCNC(=O)C2CC(=O)NCCSc2nccn2C)c(OC)c1 (stereo unspecified)
 : -1	i	0.3	/	6	5	2.7	3.2	0.71
CCOC(=O)/C(=N\Nc1ncnc2ccccc12)c1ccc(OC)cc1
 : 15	i	-0.1	1	-7	-16	1.2	/	/
CCc1nnc(NS(=O)(=O)c2ccc(NC(=S)NC(=O)/C=C/c3ccc(C(C)C)cc3)cc2)s1
 : 8	/	-30	-6	/	/	/	13	0.64

Next part; it opens with the 2 that closed the last part.
Values run as follows: B2AR ag	FGF22 binding	HNF4A DNA FP	ALR H2O2 inh	rRNA inh HTS	rRNA inh HTS OD600	rRNA inh HTS RFP	UCH37 inh	E coli growth
CCOC(=O)/C(=N\Nc1ncnc2ccccc12)c1ccc(OC)cc1
 : 15	i	-0.1	1	-7	-16	1.2	/	/
CCc1nnc(NS(=O)(=O)c2ccc(NC(=S)NC(=O)/C=C/c3ccc(C(C)C)cc3)cc2)s1
 : 8	/	-30	-6	/	/	/	13	0.64
Cc1ccc(C(NC(=O)c2ccccc2S(C)(=O)=O)c2ccccc2)cc1 (stereo unspecified)
 : -3	i	-2.1	1	-4	-3	-1.7	0.7	0.6
N#C/C(=C\c1ccccc1)C(=O)Nc1nncs1
 : 13	i	5.8	30	-1	-2	2.5	3.1	0.69
Oc1ccc(-c2nnc(SCc3ccccc3)o2)cc1
 : -3	i	4.6	-11	-5	0	0.9	/	/
O=C(CCNC(=O)c1ccc(Br)cc1)NCC(c1ccco1)N1CCCCC1 (stereo unspecified)
 : -3	i	0.6	2	2	9	-2.3	0.6	0.66
O=C1CC(c2cccc(Br)c2)c2cc3c(cc2N1)CCC3 (stereo unspecified)
 : -8	/	3.2	1	/	/	/	0.9	0.69
COc1ccc(NS(=O)(=O)c2cccc(C(=O)OCC(=O)N3CCN(c4ccc(OC)cc4)CC3)c2)cc1
 : 13	i	0.1	5	0	0	-0.2	2.1	0.7
